# Env fusion inh: blocks HIV Env-driven cell-cell fusion; inhibition, % at 12.3 µM; AID 651610; HeLa-JRFL Env/CEM21 cell fusion, luciferase; 360,000 compounds, 1.1% hits;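 active means mean replicate inhibition score of at least 50 and every replicate individually at or above 50; inconclusive means only one of the two criteria met; inactive means mean below 50 and not all replicates reaching 50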;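 further: 0% = plate neutral controls and 100% = maraviroc near 300 nM; one replicate is shown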
# MT1-MMP act inh: blocks activation of human MT1-MMP. 360,000 compounds, 0.061% hits. HT1080 RFP-PRO-GFP cells, GFP/RFP ratio fluorescence, overnight; percent of plate control window, DMSO zero. P50281. GFP/RFP ratio change, % at 20 µM. AID 651647;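 active means GFP/RFP ratio change of at least 30% with cell ATP level not reduced by more than half and red fluorescence within 50% of control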; further: strong numbers were not always called active
#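 Read-out: GFP/RFP fluorescence ratio; Test system: RFP-PRO-GFP reporter HT1080 cells; Compound dosing: single-point 20 µM compound, 1% DMSO; Times: overnight compound exposure at 37 °C.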
# Rce1 inhib: blocks yeast Ras-converting enzyme. yeast membranes, quenched prenylated peptide cleavage fluorescence. calls only. 290,000 compounds, 0.27% hits. AID 2563;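 active means fall in fluorescence gain of 50% or more versus controls, with final raw signal at or below 3038400; inconclusive means same 50% fall but final raw signal above 3038400; inactive means fall in fluorescence gain under 50%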;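 further: plate controls were neutral control wells for no effect and wells lacking membranes for full effect; tested at 10 µM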
# Target sequence (Q03530 whole entry, looked up): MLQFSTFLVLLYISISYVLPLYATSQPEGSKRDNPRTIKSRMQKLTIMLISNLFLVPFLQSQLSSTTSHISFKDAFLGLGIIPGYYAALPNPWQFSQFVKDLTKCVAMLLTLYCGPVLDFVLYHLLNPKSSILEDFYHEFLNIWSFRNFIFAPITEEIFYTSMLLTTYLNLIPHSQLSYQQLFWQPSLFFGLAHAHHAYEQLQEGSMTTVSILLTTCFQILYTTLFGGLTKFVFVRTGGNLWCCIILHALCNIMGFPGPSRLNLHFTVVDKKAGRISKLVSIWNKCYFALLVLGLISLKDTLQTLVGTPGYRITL
# CSC inhib: blocks cancer stem cells. 300,000 compounds, 1.1% hits. inhibition, % at 7.5 µM. AID 2717. cancer stem cell-like cells viability, luminescence;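 active means mean at 75% or more and at least half the replicates too; inconclusive means mean and replicates disagree; tested in HMLE shEcad cells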;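 further: 0% = median of negative and 100% = median of positive control wells; the first replicate is given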
# eIF4H inh: inhibitors of RNA binding by human eIF4H | Q15056 | eIF4H fluorescence polarization binding assay | inhibition, % at 35 µM | 290,000 compounds, 0.94% hits;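 active means 50% or more with normal probe brightness, or confirmed in later tests; inconclusive means above 50% with abnormal brightness, or retests that disagree; inactive means below 50% or failed in later tests; about a fifth of its hits are not listed in these tables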;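 further: calls also rest on retests at 20 µM and on dose response follow-up; 0% = protein and probe with vehicle and 100% = probe without protein; strong numbers were not always called active; many hits fall short of the cut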
# UUG fidelity: alters start codon recognition fidelity in yeast; S. cerevisiae UUG-firefly luciferase reporter, luminescence/redox ratio; activity score, % at 18.7 µM; 350,000 compounds, 0.13% hits; AID 602363;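 active means replicate mean at a twofold rise or more, about +100% in these data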;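 further: firefly luciferase made from a UUG start codon reports start codon fidelity; reporter light over untreated wells divided by growth signal over untreated wells; some hits fall short of that in this replicate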
# PABP FP inh: PABP-poly(A) binding inhibition | P11940 | PABP-poly(A) RNA binding, fluorescence polarization | inhibition, % at 35 µM | 290,000 compounds, 1% hits | AID 2014;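 active means 50% or more with normal probe brightness, or confirmed in later tests; inconclusive means above 50% with abnormal brightness, or retests that disagree; inactive means below 50% or failed in later tests; about a fifth of its hits are not listed in these tables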;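 further: calls also rest on retests at 20 µM and on dose response follow-up; controls were probe without protein and protein plus probe with vehicle; some compounds called inactive have numbers as strong as hits; many hits fall short of the cut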
# Target sequence (P11940 whole entry, looked up): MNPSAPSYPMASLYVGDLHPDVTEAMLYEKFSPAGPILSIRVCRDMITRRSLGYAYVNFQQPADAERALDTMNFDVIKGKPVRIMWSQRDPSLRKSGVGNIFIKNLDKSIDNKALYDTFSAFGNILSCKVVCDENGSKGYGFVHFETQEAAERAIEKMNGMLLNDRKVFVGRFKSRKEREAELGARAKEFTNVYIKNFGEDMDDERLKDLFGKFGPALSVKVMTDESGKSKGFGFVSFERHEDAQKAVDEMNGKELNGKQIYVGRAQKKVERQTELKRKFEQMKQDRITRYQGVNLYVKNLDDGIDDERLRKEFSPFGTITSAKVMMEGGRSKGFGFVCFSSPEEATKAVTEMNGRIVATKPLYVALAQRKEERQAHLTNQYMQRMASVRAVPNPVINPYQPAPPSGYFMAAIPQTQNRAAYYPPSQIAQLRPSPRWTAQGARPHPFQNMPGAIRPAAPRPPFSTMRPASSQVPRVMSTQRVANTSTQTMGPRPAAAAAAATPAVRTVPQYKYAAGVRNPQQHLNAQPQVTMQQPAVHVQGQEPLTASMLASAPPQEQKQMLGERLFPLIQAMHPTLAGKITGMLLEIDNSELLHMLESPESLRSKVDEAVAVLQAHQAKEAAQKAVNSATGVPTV
# PABP FP inh retest: further read-out of PABP FP inh, marked with its call; inhibition, %; compound at 20 µM; confirmation repeats;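 mean of two retest wells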
# MT1-MMP act inh RFP: also measured in MT1-MMP act inh; calls as there; RFP signal change, %; measured here: RFP expression control read;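 0 = vehicle wells; hits needed this value within 50% of zero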
# Active calls of the source: *; i = inactive; u = inconclusive; x = no result given.
SMILES,Env fusion inh,MT1-MMP act inh,MT1-MMP act inh RFP,Rce1 inhib,CSC inhib,eIF4H inh,UUG fidelity,PABP FP inh,others
Cc1ccc(S(=O)(=O)Nc2cc(C)c(O)c(S(=O)(=O)c3ccc(C)cc3)c2)cc1,-18,1,1,i,-9,-1,-3,6,
C=CCN(C(=O)c1csnn1)C(C(=O)NC1CCCC1)c1cccs1 (stereo unspecified),-10,-2,1,i,-5,-3,-18,4,
COc1ccc(/C=C/C(=O)N2CCNC(=O)C2)c(OC)c1,1,0,-3,i,-6,1,x,0,
O=C(CSc1ccccn1)Nc1ccc2[nH]c(=O)[nH]c2c1,-30,3,5,x,20,x,-18,x,
Cc1ccc(N=C2C(=O)Nc3c(C)cccc32)cc1,5,-2,9,i,11,-17,0,0,
Cc1ccc(S(=O)(=O)NC(C)C(=O)Nc2ccc3c(c2)OCO3)cc1 (stereo unspecified),6,0,3,i,6,-5,-10,0,
CCOC(=O)c1c(S(=O)(=O)N2CCN(c3ccc(F)cc3)CC2)c(C)n(C)c1C,5,-1,-1,i,-8,-6,x,9,
O=C(OCc1cn([C@@H]2CN(C(=O)c3cccs3)[C@@H](c3ccc(Cl)cc3)C[C@H]2O)nn1)c1ccccc1,-10,3,4,x,x,x,-10,x,
CC(=O)NCc1cc(-c2ccc(Cl)cc2)no1,-9,3,4,i,1,-2,x,-13,
Cc1c(Cl)cccc1N1C(=O)CC(NNC(=O)c2cccs2)C1=O (stereo unspecified),6,-3,-6,i,-10,10,647*,22,
COc1cc(NC(=O)C2=C(N3CCOCC3)/C(=C\c3ccc(Cl)cc3Cl)CC2)cc(OC)c1OC,x,3,-14,i,4,-5,-11,28,
COc1ccc2c(C)c(CCC(=O)NC3CC3)c(=O)oc2c1,x,10,5,i,-8,2,-14,-5,
CCCCCC(=O)Nc1cccc(S(=O)(=O)NC2=NCCCCC2)c1,-3,-3,0,x,x,x,-10,x,
O=C1COc2ccc(S(=O)(=O)NCCc3ccc(Cl)cc3)cc2N1,12,3,5,i,-2,0,-13,2,
CCC(C)CCN1C(Nc2ccccc2)=NC[C@@H]1CC(C)C (stereo partly specified),29,3,-1,i,3,-8,-14,-1,
Cn1c2c(c(=O)n(C)c1=O)NC1(N2)C(=O)Nc2ccccc21 (stereo unspecified),-12,-4,3,i,-4,11,-3,22,
O=c1[nH]cc(COCC(F)CCl)c(=O)[nH]1 (stereo unspecified),4,-2,-4,i,-14,-10,x,1,
O=C(CN1C(=O)NC2NC(=O)NC21)N/N=C/c1ccc(F)cc1 (stereo unspecified),9,4,2,i,-4,-5,x,-3,
COc1ccccc1CC(=O)Nc1ccc2nc(C)sc2c1,10,0,0,i,-10,1,x,-13,
CCCc1cn(S(=O)(=O)c2ccc(OC)cc2OC)nc1N,38,3,1,i,-13,-12,-9,-7,
COc1cc2c(cc1OC)CC(=O)N(C)CC2,x,3,1,i,x,-6,x,-3,
Cc1ccccc1NC(=O)Cc1nc(-c2c[nH]c(C(=O)N3CCCC3)c2)cs1,-4,0,-10,x,x,x,-13,x,
COc1cccc(C2=CC(c3ccc(C)cc3)n3ncnc3N2)c1 (stereo unspecified),x,x,x,i,13,25,x,31,
COCCNC(=O)CN(Cc1ccco1)C(=O)CCC(=O)Nc1nccs1,1,5,6,i,-22,-17,0,1,
COc1ccc(-c2nnn(CC(=O)N(Cc3ccco3)C(C(=O)NCC3CCCO3)c3ccco3)n2)cc1 (stereo unspecified),-6,-2,2,i,0,8,x,-6,

# (cont.)
SMILES,Env fusion inh,MT1-MMP act inh,MT1-MMP act inh RFP,Rce1 inhib,CSC inhib,eIF4H inh,UUG fidelity,PABP FP inh,others
COc1ccc(CNC(=O)CN(Cc2ccccc2)C(=O)c2csnn2)cc1,17,-2,-3,i,-3,0,50,2,
CCc1c(C(=O)NC(C)C2CCCO2)csc1C (stereo unspecified),-8,3,0,i,3,10,-18,2,
COc1cccc(NC(=O)c2cc(-c3ccncc3)nc3c(C)cc(C)cc23)c1,-8,-10,-11,i,39,-8,x,-7,
CCOc1ccc(CNc2ccc(N3CCN(Cc4ccccc4)CC3)cc2)cc1,9,1,-12,i,-1,7,-22,-7,
COCCNC(=O)CN1CCN(C(c2ccccc2)c2ccccc2)CC1,x,0,3,i,6,-4,0,14,
COCC(C)NC(=O)CSc1ncnc2sc(-c3ccccc3)cc12 (stereo unspecified),-15,0,-1,i,-5,-7,-11,-17,
CN(C(=S)NC(=O)c1ccccc1Br)C1CCCCC1,x,1,6,i,-1,-2,-9,8,
CCN(CC)CCCNC(=O)Cn1cnc2sc(C)c(S(=O)(=O)N3CCC(C)CC3)c2c1=O,-14,-3,1,x,-15,3,-33,1,
Cn1cnc([N+](=O)[O-])c1Sc1ccc(C(C)(C)C)cc1,7,-8,-8,i,-7,-3,-7,-1,
Fc1cccc(/C=N/n2c(C3CCCCC3)n[nH]c2=S)c1,23,3,4,i,-9,-4,-18,-4,
O=C(NCc1ccco1)c1ccc2sc([C@@H]3O[C@H](CO)[C@@H](O)[C@H]3O)nc2c1,19,2,3,x,x,x,-6,x,
O=C(NCc1ccc2c(c1)OCO2)c1ccc2c(=O)n(C3CCCC3)c(=O)[nH]c2c1,22,-1,5,i,3,0,-17,-3,
CCN(CC)CCOC(=O)c1ccc(N/C=C(/C#N)c2nc(-c3ccc(OC)cc3)cs2)cc1,14,3,9,i,9,-36,x,-58,
O=C(NC1CCOc2ccccc21)c1ccc(=O)[nH]c1 (stereo unspecified),9,0,-1,i,-3,-1,-11,3,
COCCCn1c(=O)/c(=C\c2cccc(OC)c2OC)s/c1=C(/C#N)C(=O)Nc1ccc(C(=O)O)cc1,5,-52,-4,i,6,49,-21,19,
CC(=O)C1=C(C)N(Cc2ccccc2)C(=O)N[C@H]1c1cccs1,0,-1,-1,i,0,3,-16,32,
N/C(=N\OC(=O)c1ccccc1Cl)c1ccccc1,-281,-1,2,i,-9,-5,-11,4,
COC(=O)c1cc(OC(=O)c2ccc(=O)[nH]c2)cc(C(=O)OC)c1,2,1,-5,i,-20,4,x,5,
CCOc1ccc(CCNC(=O)CCc2nnc3ccc(N4CCOCC4)nn23)cc1OCC,18,6,4,i,-23,-4,-7,8,
Cn1nc([N+](=O)[O-])nc1Oc1ccccc1C(=O)N1CCOCC1,-16,1,2,i,-8,0,x,-4,
Cc1cc2c(C)nc(N/N=C/c3ccccc3)nc2o1,-22,9,6,i,0,-9,-16,2,
CCOC(=O)CCCSc1nnc(CCCCCN2C(=O)c3cccc4cccc(c34)C2=O)o1,19,3,0,i,-1,-5,x,-5,
O=C(CCl)Nc1ccccc1Sc1ccc(Cl)cc1,-30,-6,-7,i,42,-4,-7,7,
Cc1ccc2nc(SCC(=O)Nc3ccccc3F)nc(=O)n2c1,-48,4,5,i,-6,x,-6,x,
O=c1[nH]c2ccccc2nc1C(Cl)c1ccccc1 (stereo unspecified),x,x,x,i,-13,-6,x,18,

# Four successive records out of the list so far, for reference:
SMILES,Env fusion inh,MT1-MMP act inh,MT1-MMP act inh RFP,Rce1 inhib,CSC inhib,eIF4H inh,UUG fidelity,PABP FP inh,others
CCOC(=O)CCCSc1nnc(CCCCCN2C(=O)c3cccc4cccc(c34)C2=O)o1,19,3,0,i,-1,-5,x,-5,
O=C(CCl)Nc1ccccc1Sc1ccc(Cl)cc1,-30,-6,-7,i,42,-4,-7,7,
Cc1ccc2nc(SCC(=O)Nc3ccccc3F)nc(=O)n2c1,-48,4,5,i,-6,x,-6,x,
O=c1[nH]c2ccccc2nc1C(Cl)c1ccccc1 (stereo unspecified),x,x,x,i,-13,-6,x,18,

# Carrying on:
SMILES,Env fusion inh,MT1-MMP act inh,MT1-MMP act inh RFP,Rce1 inhib,CSC inhib,eIF4H inh,UUG fidelity,PABP FP inh,others
O=C(N/N=C/C=C/c1ccccc1)c1n[nH]c2c1CCC2,x,14,-3,i,77*,1,-4,10,
COc1ccc(Cl)cc1N(CC(=O)Nc1ccccc1C(=O)N1CCOCC1)S(C)(=O)=O,2,0,3,i,4,-1,-15,-2,
CC(=NCc1ccco1)c1c(O)n(C2CCCCC2)c(=O)[nH]c1=O,-51,-4,-5,i,-18,-5,26,12,
CC(C)(C)C1CCC(OC(=O)c2ccncc2)CC1 (stereo unspecified),x,4,6,i,-11,-5,-24,-6,
COc1ccc(C(=O)NCc2nnc(SCC(=O)Nc3nc4ccc(C)cc4s3)o2)cc1OC,-39,-3,-2,i,3,7,x,-7,
CCOC(=O)C1=C(CC)Nc2ccccc2N=C1N,-64,-1,3,i,4,-6,x,-11,
CC(=O)Nc1cccc(-c2ccnc3c2CC(C)(C(=O)NCCC(F)(F)F)O3)c1 (stereo unspecified),-13,-6,-14,x,x,x,13,x,
O=C(CNC(=O)C1CCCCC1)OCc1cc(=O)oc2ccc3ccccc3c12,-50,-7,5,i,-11,-4,-8,26,
Cn1nc(C(=O)NCC2CCCO2)c2ccccc2c1=O (stereo unspecified),-27,1,3,i,9,-4,-16,-6,
CCOc1ccc(C(=O)NC2CCN(CC(=O)NCc3ccccc3)CC2)cc1,-13,2,4,x,-16,-11,-13,1,
Cc1c(N=C(N)/N=C(\N)Nc2ccccc2)c(=O)n(-c2ccccc2)n1C,3,-4,3,i,2,8,x,4,
COc1ccc2sc(N(CCCN(C)C)C(=O)c3ccc(S(=O)(=O)N(C)Cc4ccccc4)cc3)nc2c1,x,4,4,i,-7,x,-2,x,
O=C(COC(=O)CNC(=O)c1ccccc1F)Nc1cccnc1Cl,0,8,1,i,-12,-3,x,0,
CC(=O)Nc1cccc(NC(=O)CSc2nnc(Cc3cccn3C)n2CCc2ccccc2)c1,u,3,2,i,1,9,-17,8,
CN(C(=O)c1cccc(NC(=O)Cc2ccc(NC(=O)C3CCN(C(=O)c4ccccc4)CC3)cc2)c1)C1CCC1,-1,-7,-2,x,x,x,5,x,
CNC(=O)c1[nH]cnc1C(=O)N[C@@H](CC(C)C)C(=O)OC(C)(C)C,-9,4,-2,i,-21,1,-3,-13,
Nn1c(SCC(=O)Nc2cccc(S(N)(=O)=O)c2)nnc1C1CC1,11,1,4,i,-1,u,x,-15,PABP FP inh retest=23

# Among those listed so far, seven contain a thiophene ring, fused or not:
SMILES,Env fusion inh,MT1-MMP act inh,MT1-MMP act inh RFP,Rce1 inhib,CSC inhib,eIF4H inh,UUG fidelity,PABP FP inh,others
C=CCN(C(=O)c1csnn1)C(C(=O)NC1CCCC1)c1cccs1 (stereo unspecified),-10,-2,1,i,-5,-3,-18,4,
O=C(OCc1cn([C@@H]2CN(C(=O)c3cccs3)[C@@H](c3ccc(Cl)cc3)C[C@H]2O)nn1)c1ccccc1,-10,3,4,x,x,x,-10,x,
Cc1c(Cl)cccc1N1C(=O)CC(NNC(=O)c2cccs2)C1=O (stereo unspecified),6,-3,-6,i,-10,10,647*,22,
CCc1c(C(=O)NC(C)C2CCCO2)csc1C (stereo unspecified),-8,3,0,i,3,10,-18,2,
COCC(C)NC(=O)CSc1ncnc2sc(-c3ccccc3)cc12 (stereo unspecified),-15,0,-1,i,-5,-7,-11,-17,
CCN(CC)CCCNC(=O)Cn1cnc2sc(C)c(S(=O)(=O)N3CCC(C)CC3)c2c1=O,-14,-3,1,x,-15,3,-33,1,
CC(=O)C1=C(C)N(Cc2ccccc2)C(=O)N[C@H]1c1cccs1,0,-1,-1,i,0,3,-16,32,
